UCH37 inh – inhibitors of human deubiquitinating enzyme UCH37. Q9Y5K5. purified proteasome/UCH37, Ub-AMC cleavage fluorescence. inhibition, % (concentration not given with the values). hit rate 0.33% among 330,000. AID 588478;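 active means mean of two replicates above 20%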;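 further: 0% = compound-free wells with enzyme and 100% = wells lacking proteasome; stock transfer was 100 nL into about 20 µL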
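system = Proteasome-associated human UCH37 deubiquitinase | amount = 0.15 nM proteasome as dispensed | medium = pH 7.4 Tris-HCl (50 mM) with ovalbumin, ATP-MgCl2, DTT | incubation = 30 min preincubation with enzyme, 25 min cleavage at room temperature | detection = AMC fluorescence 355/460 nm | read-out basis = percent inhibition | controls = no-proteasome and no-compound wells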
RanGTP-Imp inh – disruptors of Ran-importin-beta complex formation – biochemical, FRET, CFP-Ran, YFP-importin-beta, homogeneous, primary screen; hit rate 1.1% among 300,000; cell-free CFP-Ran/YFP-importin-beta FRET ratio; inhibition, % (test concentration not listed);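 active means most replicates above 15%; inconclusive means exactly half above 15%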;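 further: 0% = DMSO wells and 100% = Ran loaded with GDP instead of GTP; wells of about 40 µL received 100 nL stock; the first replicate is given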
Beta apoptosis – blocks beta cell apoptosis; hit rate 0.8% among 300,000; INS-1E cytokine-induced death, ATP luminescence, 48 h; percent of positive-control rescue, neutral wells zero; protection from apoptosis, % (test concentration not listed);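 active means all replicates at 75% or more, or half of them and the mean; inconclusive means half reach 75% but not the mean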;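 further: 0% = cytokine-treated negative control wells and 100% = positive control rescue; higher means more ATP so stronger rescue from cytokine killing; wells of about 40 µL received 100 nL stock; the first replicate is given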
B2AR ag – agonists of human beta-2 adrenergic receptor inducing internalization. hit rate 0.43% among 340,000. AID 504454. response, % (concentration not given with the values). Am2.2-beta2AR cells, FAP receptor internalization, flow cytometry; reference of the scale not given here. P07550;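 active means response above a set limit, near 3 SD of response in nonfluorescent compounds, cut at about 42% in these data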;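 further: stock transfer was 100 nL into about 11 µL; a reference agonist was the positive control; negative values mostly stem from fluorescent compounds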
LANA-H2A inh – blocks KSHV LANA binding to histone H2A/H2B | cell-free LANA-H2A/H2B peptide, fluorescence polarization | hit rate 0.6% among 320,000 | inhibition, % (test concentration not listed); in the data active means inhibition mostly above about 10%, no sharp cut-off; inactive means mostly below about 6.7%;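 further: stock transfer was 7.5 nL into about 10 µL; 0% = median of vehicle wells and 100% = median of positive control wells; one replicate is shown; the record names a cut of 25% in any replicate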
Target sequence (Q9QR71 whole entry, looked up): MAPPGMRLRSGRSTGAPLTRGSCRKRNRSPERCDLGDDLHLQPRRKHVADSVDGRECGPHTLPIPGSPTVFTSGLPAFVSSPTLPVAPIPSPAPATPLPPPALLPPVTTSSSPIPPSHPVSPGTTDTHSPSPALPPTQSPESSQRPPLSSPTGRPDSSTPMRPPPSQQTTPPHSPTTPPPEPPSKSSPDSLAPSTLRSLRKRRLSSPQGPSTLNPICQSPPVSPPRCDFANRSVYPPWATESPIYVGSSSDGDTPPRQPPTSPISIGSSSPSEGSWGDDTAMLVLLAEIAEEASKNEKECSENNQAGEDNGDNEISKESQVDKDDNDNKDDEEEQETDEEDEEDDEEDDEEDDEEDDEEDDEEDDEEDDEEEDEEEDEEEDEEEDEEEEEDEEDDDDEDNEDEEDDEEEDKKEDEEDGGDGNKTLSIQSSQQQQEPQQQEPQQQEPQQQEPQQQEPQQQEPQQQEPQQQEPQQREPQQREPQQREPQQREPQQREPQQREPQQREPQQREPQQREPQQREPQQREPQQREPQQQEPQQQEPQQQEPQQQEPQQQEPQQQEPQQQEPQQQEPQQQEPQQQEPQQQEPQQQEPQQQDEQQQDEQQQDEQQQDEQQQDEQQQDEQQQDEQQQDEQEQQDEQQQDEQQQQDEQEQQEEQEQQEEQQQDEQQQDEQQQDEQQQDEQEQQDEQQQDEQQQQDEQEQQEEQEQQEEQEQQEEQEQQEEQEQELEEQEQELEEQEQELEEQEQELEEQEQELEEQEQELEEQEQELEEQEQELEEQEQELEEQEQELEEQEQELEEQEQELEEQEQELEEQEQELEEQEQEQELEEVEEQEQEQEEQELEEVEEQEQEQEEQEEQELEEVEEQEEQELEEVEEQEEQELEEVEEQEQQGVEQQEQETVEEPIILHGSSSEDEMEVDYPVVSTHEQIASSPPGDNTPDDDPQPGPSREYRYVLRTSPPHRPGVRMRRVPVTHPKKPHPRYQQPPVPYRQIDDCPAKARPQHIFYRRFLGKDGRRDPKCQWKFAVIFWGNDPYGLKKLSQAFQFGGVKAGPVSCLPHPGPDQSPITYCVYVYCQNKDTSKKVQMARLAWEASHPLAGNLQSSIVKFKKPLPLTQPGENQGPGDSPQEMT
Bfl-1 A1 inh – inhibitors of the anti-apoptotic protein A1, read as caspase activation | MEF A1-2A-BIM cells, Caspase-Glo 3/7 luminescence, 3 h; percent of clofoctol response, vehicle zero | caspase activation, % (concentration not given with the values) | hit rate 0.066% among 330,000 | AID 2462;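 active means over half of replicate activation scores above 10%, or exactly half above 10 with the replicate mean above 10; inconclusive means replicate mean below 10 yet half the replicates above 10; inactive means over half of replicates below 10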;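 further: wells of about 30 µL received 50 nL stock; many hits fall short of the cut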
Calb FLC – affects C. albicans growth with fluconazole. growth inhibition, % (no concentration beside the values). hit rate 0.57% among 300,000. C. albicans CaCi-2 (fluconazole-resistant clinical isolate) + fluconazole, Alamar Blue growth, 48 h;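 active means most replicates above 75%; inconclusive means exactly half above 75%; inactive means most below 75%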;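 further: all wells also contain fluconazole at 8 µg/ml as a sub-toxic cotreatment; 0% = median of DMSO wells and 100% = median of geldanamycin control wells; wells of about 8 µL received 7.5 nL stock; the first replicate is given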
T cruzi repl – T. cruzi replication inhibition; hit rate 1.4% among 300,000; inhibition, % (no concentration beside the values); T. cruzi beta-gal in NIH3T3, luminescence, 90 h;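 active means mean inhibition across valid replicates above about 55%, limit read from the data; inconclusive means mean below that limit but half or more replicates reach it; inactive means mean below it, under half of replicates reach it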;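 further: signal also drops with host cell toxicity which is not excluded here; 0% = plate median of DMSO wells and 100% = zero luminescence signal; higher percent means less beta-gal luminescence so fewer parasites; stock transfer was 50 nL into about 50 µL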
Numbers without * were called inactive; ? = inconclusive; . = not tested or not shown; & = joins results of further samples.

SMILES	UCH37 inh	RanGTP-Imp inh	Beta apoptosis	B2AR ag	LANA-H2A inh	Bfl-1 A1 inh	Calb FLC	T cruzi repl
O=C(Nc1ccc2c(c1)OCCO2)N1CCN(c2ccccc2)CC1	0.2	1.4	.	9.8	-3.2	0.3	17.2	-18.5
COC(=O)C1=C(NC(=O)c2ccccc2C)CCS1	-1.7	10.5	0.2	11.9	2.3	1.1	14.0	-13.0
CCOC(=O)N1CCC(Nc2c(NCCCN(CC)Cc3ccccc3)c(=O)c2=O)CC1	1.7&3.5	2.9	-7.2	-3.1&-2.6	-1.5	0.8	-4.0	-0.1
O=C(Nc1ccc2c(c1)OCCO2)c1oc2ccccc2c1NC(=O)C1CC1	-4.8	-1.6	10.4	-2.9	-1.0	0.3	-16.2	6.0
COCCn1c(SCC(=O)N(C)c2ccccc2)nc2c([nH]c3ccccc32)c1=O	-5.0	3.5	-0.7	-4.6	-3.3	-0.5	3.5	-5.5
Cc1cnc(C(=O)NC(C)CCc2ccccc2)cn1 (configuration not stated)	1.7	-1.5	.	-10.2	7.3	-0.4	10.3	-0.4
Cc1cc(C(=O)CSc2nnnn2-c2ccccc2)c(C)n1CC1CCCO1 (configuration not stated)	2.8	-2.6	4.0	-7.5	-3.7	-0.5	?	7.0
Cc1cc(C)c(C)c(S(=O)(=O)NCc2ccc(C(=O)N3CCCCC3)cc2)c1C	1.5	-1.0	0.2	14.0	-2.0	?	4.1	15.5
CCOc1ccccc1-n1c(=S)sc2c(=O)n(-c3ccc(F)cc3)c(SCC(=O)O)nc21	5.8	2.5	.	-2.4	-1.2	0.9	8.1	-10.9
C#CCOCCOCCOCCNc1nc(N2CCN(C(=O)CCCCCCCCCCNC(=O)Cn3cc(C[C@@H](C)O)nn3)CC2)nc(N2CCN(C(=O)CCCCCCCCCCNC(=O)[C@H](CCCN=C(N)N)n3cc(C[C@@H](C)CC)nn3)CC2)n1	3.8	3.4	60.6	57.0*	-2.4	0.0	35.5	66.1*
CCc1ccccc1Nc1nc(N)nc(COC(=O)c2cccn2C)n1	7.3	?	-3.8	-7.0	-1.4	0.0	-21.4	4.5
CCCCN1CNC(=S)N(c2cc(C)ccc2C)C1	4.3	5.7	-3.3	3.7	8.9	.	4.9	-11.0
Cc1nn(Cc2cccc(F)c2)c(C)c1NC(=O)c1c(Cl)cnn1C	5.8	3.0	-0.7	1.9	5.2	0.3	-2.1	-6.4
COc1cc(/C=C/C(=O)O)cc(S(=O)(=O)Nc2cc(Cl)c(Cl)cc2Cl)c1OC	4.5	3.1	-2.0	4.2	-0.1	0.2	10.2	-1.4
CCOC(=O)c1cc(-c2ccc(OC)cc2)n(CCC(=O)NCCN2CCC(C)CC2)c1C	1.9	-3.4	3.8	11.6	-5.7	-0.7	6.3	3.4
CN(Cc1ccccc1)C(=O)COc1ccc2ccccc2c1	-0.4	2.8	-1.6	-6.0	0.6	0.3	-3.8	1.2
COc1ccc(C(CNC(=O)COc2ccc(Cl)cc2C)N2CCCCC2)cc1 (configuration not stated)	1.3	5.4	3.7	-5.0	4.5	-0.5	17.1	-1.3
CCOC(=O)C1(Cc2cccc(Cl)c2)CCCN(C(=O)c2ccc(C)nc2)C1 (configuration not stated)	0.5	-2.1	-5.6	11.3	-2.1	0.2	-3.3	2.0
Cc1cccc(C(=O)NNC(=O)CCC(=O)Nc2cccc(Cl)c2C)c1	1.5	3.6	-1.6	-0.6	0.7	0.8	-4.4	-19.5
O=C(c1cnn2c(C(F)F)cc(-c3ccccc3)nc12)N1CCCc2ccccc21	3.2	-4.2	1.0	-4.6	18.5	-0.1	-2.5	18.9
COCc1ccc(CN2CCCC(CO)(Cc3cccc(OC)c3)C2)o1 (configuration not stated)	1.3	-2.6	-11.4	-0.9	3.6	0.4	1.0	38.7
CC1CCCC(NC(=O)C2CCC(CNc3c(N4CCCC4)c(=O)c3=O)CC2)C1C (configuration not stated)	-1.9	-0.8	4.1	-1.3	0.5	0.0	5.5	-22.1
CCCC(=O)Nc1ccc(C(=O)NNC(=O)c2ccco2)cc1	0.5	-3.1	0.4	6.2	0.1	0.3	-5.8	-6.2
O=C(O)C(Cc1c[nH]c2ccccc12)NS(=O)(=O)c1ccc(Cl)c(C(F)(F)F)c1 (configuration not stated)	2.1	3.1	-4.5	-4.2	-1.9	0.4	-1.3	-13.7
Clc1ccc(NCn2cncn2)nc1	-0.9	-8.7	-0.8	-7.9	-2.2	-0.1	3.2	-6.8

Next part
SMILES	UCH37 inh	RanGTP-Imp inh	Beta apoptosis	B2AR ag	LANA-H2A inh	Bfl-1 A1 inh	Calb FLC	T cruzi repl
C#CCOCCOCCOCCNc1nc(N2CCN(C(=O)[C@H](CCC(=O)O)n3cc(C(N)[C@H](C)CC)nn3)CC2)nc(N2CCN(C(=O)[C@H](Cc3ccc(O)cc3)n3cc(C(N)[C@H](C)CC)nn3)CC2)n1 (some centres not stated)	2.3	3.2	-0.3	-0.3	0.0	0.6	-0.5	-8.5
CN(C)CCCN1C(=O)c2cccc3cccc(c23)C1=O	-147.9	-2.5	16.5	-5.4	-7.3	-0.2	8.3	21.7
O=C1C=C(c2ccc(Cl)cc2)OC2(CCCC2)O1	4.6	-4.5	-4.0	-3.0	6.9	0.7	4.4	4.4
Cc1ccc(N(CC(=O)NCc2cccnc2)S(C)(=O)=O)cc1C	2.3	1.9	1.7	2.1	2.2	-0.9	-3.2	-0.4
CCOC(=O)c1cnn(-c2nc(C)cc(C)n2)c1N	2.9	-2.7	-10.3	-11.7	-3.0	-0.4	10.5	-3.5
Cc1coc2c1c(C)cc1oc(=O)c(CC(=O)NCCCCCC(=O)O)c(C)c12	-330.8	0.4	-11.5	15.1	1.8	0.0	-2.0	-6.7
Cc1cccc(NC(=O)c2cc(Cl)nc3ccccc23)n1	-0.8	-2.6	0.4	-6.6	0.8	0.3	-7.2	-12.4
COc1ccc(C)cc1Nc1n[n+](-c2ccccc2)c(-c2ccc(OC)c(OC)c2OC)s1	5.7	0.3	95.7*	28.1	-3.0	0.5	91.5*	55.0*
O=C(Nc1ccccc1)c1cccc(S(=O)(=O)NCc2ccco2)c1	1.1	-0.3	-1.2	-5.2	3.1	-1.9	-0.9	1.0
CCCCC1(C)NC(=O)N(CC(=O)Nc2ccc(S(=O)(=O)N3CCOCC3)cc2)C1=O (configuration not stated)	4.6	-3.3	-6.8	-4.0	-4.6	0.8	2.8	-3.2
COC(=O)CCn1nnc(-c2cccs2)n1	5.4	-8.8	-2.6	-1.8	-1.1	0.1	-9.3	-0.2
O=C(Nc1cccc2ncccc12)c1ccc([N+](=O)[O-])o1	7.4	-0.3	-36.0	0.9	6.9	0.5	-15.8	-8.0
COc1ccc(C2SCC(=O)N2c2c(C)n(C)n(-c3ccccc3)c2=O)cc1 (configuration not stated)	-0.1	?	8.6	3.7	0.2	-0.6	0.0	-6.1
Cn1c(COc2ccccc2Br)nc2ccccc21	2.0	-2.2	-5.3	-12.2	-3.5	-6.2	25.0	24.0
Nn1c(SCC(=O)N2CCN(S(=O)(=O)c3ccccc3)CC2)nnc1-c1cccs1	5.8	1.3	0.1	-8.8	4.8	-0.3	-5.1	-2.4
CCCCN(C(=O)CCNC(=O)NC12CC3CC(CC(C3)C1)C2)c1c(N)n(CCCC)c(=O)[nH]c1=O	-0.3	0.8	3.1	0.9	-2.2	-0.6	5.0	15.4
CC1CN(c2nnc(NC(=O)c3ccccc3)s2)CC(C)O1 (configuration not stated)	-1.6	3.4	-3.1	-16.4	-1.8	0.6	11.6	3.4
Cc1ccc(N=C2C(=O)Nc3ccc(C)c(Br)c32)cc1	.	4.4	-12.3	-26.8	-3.3	4.3	-5.3	9.1
Cc1nc(N2CCN(c3ccccn3)CC2)c2c(C)c(C(=O)Nc3ccc(F)cc3Cl)sc2n1	-99.8	1.6	10.0	8.1	-1.6	-0.3	-0.4	-4.7
COc1cccc(C(=O)N2CCN(S(C)(=O)=O)CC2)c1	2.7	-1.3	4.1	1.4	2.0	0.0	37.0	-18.6
CCCCn1c(N)c(N(CCC(C)C)C(=O)C2=NN(c3ccccc3)C(=O)CC2)c(=O)[nH]c1=O	-0.2	.	-6.2	2.4	-4.5	-0.4	.	.
O=C1CCCC2=C1C(c1ccccc1)C1C(=O)c3ccccc3C1=N2 (configuration not stated)	-4.9	4.5	?	-11.5	-4.1	0.1	21.9	-3.3
CCC(CC)NC(=O)COC(=O)c1cccc(C)c1O	-0.9	0.4	-0.9	7.2	8.5	-0.5	-8.5	-5.9
O=C(COc1ccc(Cl)cc1)NC1CC1	2.0	-1.3	-3.7	-4.0	-6.7	-0.1	45.2	-15.5
CN1CCN(CCNC(=O)Cn2c(=O)c3cccn3c3ccc(F)cc32)CC1	0.5	4.0	-2.6	-6.1	0.8	-1.8	9.2	-13.3

Remaining list, next part:
SMILES	UCH37 inh	RanGTP-Imp inh	Beta apoptosis	B2AR ag	LANA-H2A inh	Bfl-1 A1 inh	Calb FLC	T cruzi repl
NC(=O)NC(CC(=O)N1CCc2ccccc2C1)c1ccc(Cl)cc1 (configuration not stated)	7.6	-2.3	-6.5	7.1	5.1	0.3	-4.7	-7.9
CSc1nc(C(C)C)ccc1CNC(=O)CC(C)c1ccccc1 (configuration not stated)	.	1.6	-0.1	-15.7	0.8	1.4	1.5	19.1
CCCCOc1nc2c(c(=O)n(C)c(=O)n2C)n1C	4.6	0.5	0.2	9.0	0.8	0.1	3.8	-4.1
COCCCNc1nc2cc(OC)c(OC)cc2c2nc(-c3ccccc3)nn12	-23.8	7.0	22.8	15.1	5.1	1.1	-7.2	-2.3
Cc1nn(C)cc1CNC(=O)/C=C/c1cnn(C)c1	0.1	3.7	-2.2	1.5	-6.7	0.7	10.3	5.8
COc1ccc(N2CC(C(=O)Nc3nnc(SCC(=O)NC(C)(C)C)s3)CC2=O)cc1 (configuration not stated)	2.2	-1.8	-1.0	-3.4	-1.3	-0.5	-1.7	-3.8
COc1cc(OC)cc(C(=O)N[C@H](C(=O)NC23CC4CC(CC(C4)C2)C3)C(C)C)c1	5.8	7.1	4.9	2.9	5.3	0.5	-59.4	22.9
O=C(COC(=O)c1ccc[nH]c1=O)NCC1CCCO1 (configuration not stated)	2.0	1.6	-4.4	-2.8	-5.5	-0.4	-6.2	-0.4
C[C@@H](C(=O)Nc1ccc2ccccc2c1)[C@H]1C[C@]1(C)[C@H](NC(=O)c1cccnc1)c1ccccc1	0.6	.	9.3	.	0.3	-0.2	.	.
CCCCCN(C(=O)NC(=O)Nc1ccccc1C)S(C)(=O)=O	3.9	-6.2	-4.2	-14.4	3.1	0.8	-10.0	2.7
CCC(C(=O)NCCCN1CCN(C)CC1)n1nc(C)n2c(cc3occc32)c1=O (configuration not stated)	5.0	5.3	-3.2	-3.9	-5.8	-0.2	9.8	4.2
CN(CC(=O)Nc1ccc(Cl)cc1)C(=O)c1ccc(N2CCCC2=O)cc1	2.2	.	6.5	7.8	-0.7	0.5	.	.
Nc1nnc(SCC(=O)OCC(=O)c2ccccc2)s1	0.4	3.2	3.6	-6.5	4.0	0.3	-0.3	3.9
